ClpP mod = qHTS Assay for Activators of ClpP | purified B. subtilis ClpP, FRET peptide cleavage, 20 min | 340,000 compounds, 1.9% hits | AID 651965, 2013 | Potency, µM (top dose mostly 57.5 µM), inactives show at the top dose activity change, negative = active; active = well fitted falling curve with a large enough effect; inconclusive = small, poorly fitted or top-dose-only effect; inactive = no such curve, though single readings can be large or run the other way; also: potency is read from the fitted curve at half-maximal effect; the source files actives as falling curves though it sought activators and does not explain the sign; nearly all actives have a fitted effect of over 65% in size; many hits overshoot -100%
Target sequence (P80244 whole entry, looked up): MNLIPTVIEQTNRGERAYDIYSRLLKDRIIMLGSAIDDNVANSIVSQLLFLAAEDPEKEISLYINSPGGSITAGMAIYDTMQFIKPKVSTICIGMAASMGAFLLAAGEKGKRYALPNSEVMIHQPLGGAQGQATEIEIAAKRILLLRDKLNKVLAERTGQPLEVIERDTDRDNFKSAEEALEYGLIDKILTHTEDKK
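ClpP 10 microg/mL final, pH 8 Tris/KCl buffer with BSA, glycerol, Tween-20; compound pinned in; FRET-FV substrate; RT 20 min; Ex320/Em430; ΔFRET vs ADEP 5.8 microM, DMSO, no enzyme.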
Sfp inh = inhibitors of Bacillus subtilis Sfp phosphopantetheinyl transferase. Q9F4F7. Biochemical Sfp PPTase activity, qHTS. Potency, µM, without a hit: max response, negative = inhibition, most hits filed as inhibitors. 310,000 compounds, 3.5% hits. AID 1490; active = well fitted inhibition curve with a large enough effect; inconclusive = small, poorly fitted or top-dose-only effect, or another doubt; inactive = no such curve, though single readings can be large or run the other way;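 also: the enzyme is Sfp with the accession as filed and its product quenches rhodamine fluorescence; potency is read from the fitted curve at half-maximal effect; 0% = enzyme reaction without inhibitor and -100% = no enzyme wells; top concentration of the series not given in the record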
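Fluorescence-quenching assay: 15 nM Sfp-PPTase preincubated 15 min at room temperature with compound, then 5 uM rhodamine-CoA and 12.5 uM BHQ-2-labelled YbbR peptide added. Fluorescence (ex 525/em 598 nm) read at start and after 30 min; difference gives rate.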
PINK1 modulator = modulators of PINK1 expression | AID 624263 | 410,000 compounds, 0.2% hits | Potency, µM (titrated, usually from 76.6 µM), for the others: top-dose activation (PINK1 increase), usual class: activators | PINK1 immunofluorescence, high-content cytometry, 24 h; active = well fitted activation curve with a large enough effect; inconclusive = small, poorly fitted or top-dose-only effect; inactive = flat fitted curve, though single readings scatter; cell line not stated here;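 also: potency is read from the fitted curve at half-maximal effect; % of control where 0% means no effect; nearly all actives have a fitted effect of over 65% in size; a mitochondrial uncoupler was the plate control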
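PINK1 protein, normally rapidly degraded, was detected by immunofluorescence after 24 hour compound treatment of a stable cell line. Titration data (5 concentrations) came from laser-scanning cytometry, with CCCP-treated wells as controls.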
Menin MLL FP FL = displaces fluorescein MLL peptide from human menin; Fluorescence polarization, fluorescein-MLL peptide displacement from menin; FP activity change, % at 61.4 µM; 290,000 tested, under 10 active; AID 1766; inconclusive = falling polarisation curve, or a change in total fluorescence; inactive = total fluorescence flat and polarisation flat or rising; no compound was filed as active; the % refers to the polarisation; negative = inhibition;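 also: % of control where 0% means no effect; inhibitors lower the polarisation; unlabelled MLL peptide was the positive control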
gsp antagonist = antagonizes gsp, the McCune-Albright syndrome mutation | gsp-mutant cells, cAMP HTRF, 30 min; control for the full effect not named in the record | Potency, µM (doses to about 76.9 µM), inactives show top-dose activity change, negative = inhibition, usual class: inhibitors | 340,000 compounds, 0.4% hits; active = falling curve of any shape with a large fitted effect; inconclusive = falling curve, mostly with a smaller effect; inactive = flat or rising curve; cell line not stated here;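 also: intracellular cAMP measured with PDE inhibitor Ro 20-1724 present during compound exposure; potency is read from the fitted curve at half-maximal effect; % is scaled to controls: 0 for no effect and ±100 for the full control effect; nearly all actives have a fitted effect of over 65% in size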
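HTRF cAMP measurement after 30 min RT detection following 30 min, 37C compound treatment alongside […] (added as 300 uM solution) in G418-selected cells seeded at 2000/well and grown 16–24 h.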
gsp agonist = activates gsp, the McCune-Albright syndrome mutation. gsp mutant cells, cAMP HTRF, 30 min; control for the full effect not named in the record. Potency, µM (titrated, usually from 76.9 µM), for the others: at the top dose activation (cAMP increase), most hits filed as activators. 340,000 compounds, 0.13% hits; active = well fitted activation curve with a large enough effect; inconclusive = small, poorly fitted or top-dose-only effect, or another doubt; inactive = no such curve, though single readings can be large or run the other way; cell line not stated here;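 also: phosphodiesterase inhibitor Ro 20-1724 added with compounds to block cAMP breakdown; potency is read from the fitted curve at half-maximal effect; nearly all actives have a fitted effect of over 60% in size; about a fifth of the inactives were tested at one dose only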
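Cells stably selected in G418 were plated at 2000/well, grown 16-24 hr, then given compounds in DMSO with the PDE inhibitor […] (300 uM solution added) for 30 min at 37C; cAMP was read by HTRF.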
D2 agonist = agonists of human D2 dopamine receptor (beta-arrestin). DiscoveRx PathHunter D2 beta-arrestin, luminescence, 90 min; 100% = 57 uM dopamine signal. activation, % (test concentration not listed). 360,000 compounds, 0.084% hits; in the data active = activation above about 40%; inconclusive = about 15% to 40%; inactive = below about 15%; also: compound concentration not given in the record; the text of the record calls up to 30% inactive
Target sequence (P14416 whole entry, looked up): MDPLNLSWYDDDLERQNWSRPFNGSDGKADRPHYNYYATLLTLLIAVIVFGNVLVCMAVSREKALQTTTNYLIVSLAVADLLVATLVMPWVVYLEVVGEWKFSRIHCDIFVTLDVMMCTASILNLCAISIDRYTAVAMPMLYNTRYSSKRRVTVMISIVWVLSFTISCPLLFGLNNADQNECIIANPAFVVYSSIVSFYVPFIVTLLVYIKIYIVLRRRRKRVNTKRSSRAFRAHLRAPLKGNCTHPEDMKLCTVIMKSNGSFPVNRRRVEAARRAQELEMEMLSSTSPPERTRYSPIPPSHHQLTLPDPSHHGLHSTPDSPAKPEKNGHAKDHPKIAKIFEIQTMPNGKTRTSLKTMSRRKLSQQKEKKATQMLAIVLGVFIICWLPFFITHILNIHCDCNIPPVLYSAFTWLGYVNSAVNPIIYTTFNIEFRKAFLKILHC
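DiscoveRx PathHunter D2 beta-arrestin cells (2,100/well) attached overnight, then compound-stimulated 90 min at 37 C in HBSS/10 mM HEPES/0.1% Tween-20 buffer; beta-galactosidase complementation read by luminescence after 1 h at ambient temperature. Dopamine 57 uM final (EC100) as control.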
Starred values were filed as active, the others as inactive; u = inconclusive; x = not tested or not shown; & = joins results of further samples; [ ] = another dose, or the depositor's remark.

SMILES	ClpP mod	Sfp inh	PINK1 modulator	Menin MLL FP FL	gsp antagonist	gsp agonist	D2 agonist
O=C(CN1C(=O)COc2ccccc21)Nc1ccc(F)cc1	-0.3%	50µM*	0.1%	3.4	3%	4%	u
COc1ccccc1C=NN=Cc1ccccc1OC	-2.4%	x	-1.4%	x	-14%	-20%	-0.5
OC1CCCC1	2.1%	x	1.6%	x	-2%	x	-3.4
O=C(COC(=O)CNC(=O)c1cccc([N+](=O)[O-])c1)Nc1cccc(S(=O)(=O)N2CCCC2)c1	-3.0%	2%	1.1%	4.2	-3%	20%	2.0
COC(=O)[C@H](CC(C)C)N(Cc1ccccc1)S(=O)(=O)N(Cc1ccc(OC)cc1)[C@@H](CC(C)C)C(=O)OC	-1.9%&-1.7%	x	5.6%	x	50µM*	x	-3.2
CNc1ccc2ncc(-c3cccc(C(=O)N(C)C)c3)n2n1	5.2%	x	1.3%	x	x	x	-4.1
CC1CCCC(C)N1C(=O)CSc1nc2ccccc2c(=O)[nH]1 (stereo not drawn)	x	2%	-1.2%	1.3	0%	-42%[inhibitor]	0.2
COC(=O)c1cccc(NC(=O)/C=C/c2cccc([N+](=O)[O-])c2)c1	-1.6%	-9%	4.2%[38.3 µM]	3.1	-8%	8%	2.8
CC1CCCCC1NC(=O)CN1c2cccc3cccc(c23)S1(=O)=O (stereo not drawn)	u	x	1.4%	x	u	u	-2.0
Cc1cc(NC(=O)c2ccc(Cl)cc2)n(CCOC(=O)c2ccc(Cl)cc2)n1	-0.5%	3%	6.7%	5.3	1%	-23%	-1.1
COc1ccc(CCNc2nc(-c3sc(C)nc3C)cs2)cc1OC	-1.0%	45µM*	-2.1%	-0.2	u	-30%[inhibitor]	-1.7
O=C1CC(c2ccccc2)NC(=S)N1 (stereo not drawn)	-1.1%	x	0.0%	x	x	-6%	-1.6
Cc1ccc(NC(=O)c2ccc(S(=O)(=O)N3CCCCC3)cc2)cc1	-1.8%	16%	u	-1.4	14%	-29%	-0.3
O=C(CCN1C(=O)/C(=C/c2ccccc2Cl)SC1=S)N1CCCC1	x	-15%	-0.6%	-2.4	-11%	-8%[15.4 µM]	-2.1
COc1ccc(OCC(=O)OCC(=O)NC2CC2)cc1	-0.9%	x	0.7%	x	3%	1%	-0.7
CCOC(=O)c1cc(-c2ccc(OC)cc2)nc2c1c(C)nn2CCC(N)=S	x	8%	-0.1%	-1.1	u	-4%	-5.0
COC(=O)[C@]1(C)N[C@H](CN(C)C(=O)c2ccc(F)cc2)[C@@H]2C(=O)N(Cc3ccccc3)C(=O)[C@@H]21	1.4%	x	-0.3%	x	2%	x	-3.4
Cc1ccc(C(=O)OCC(=O)N2CCC(Cc3ccccc3)CC2)cc1N	-20%	4%	0.5%	1.7	11%	u	3.6
COc1ccc(OCC(=O)Nc2ccc3c(c2)nc(CCn2ccccc2=O)n3C)cc1	-1.5%	10%	1.4%	x	5%	-7%	-0.8
CCc1nnc(NC(=O)CSCc2cc(=O)n3nc(C)sc3n2)s1	-1.9%	8%	-0.2%	x	2%	14%	-2.6
Cc1ccccc1OCC(=O)N/N=C/c1cn(Cc2ccccc2)c2ccccc12	0.5%	-1%	0.1%	7.2	5%	-1%[15.4 µM]	-5.8
CCC(Oc1ccccc1)C(=O)Nc1cc(C)on1 (stereo not drawn)	-1.0%	19%	0.7%	1.1	5%	1%	-5.9
COc1ccc(Cc2nnc(SCC(=O)Nc3ccccc3C#N)o2)cc1	-0.3%	7%	2.8%	x	9%	24%	-2.7
Cc1noc(C)c1C(=O)OC(C)C(=O)Nc1ccc2c(c1)OCO2 (stereo not drawn)	0.1%	x	0.4%	x	10%	14%	-2.6
COc1ccccc1C(=O)NC(=S)Nc1ccc(N2CCOCC2)cc1	-3.8%	x	0.0%	x	x	-479%[inhibitor]	-2.7

Next entries:
SMILES	ClpP mod	Sfp inh	PINK1 modulator	Menin MLL FP FL	gsp antagonist	gsp agonist	D2 agonist
COc1ccc(S(=O)(=O)N(C)c2ccc(C(=O)N3CCCC3)cc2)cc1	x	7%	-0.9%	-0.8	-12%	5%[15.4 µM]	5.6
N#Cc1c(N2C(=O)Nc3ccccc3N2O)sc2c1CCCCCC2	-7.1%	-18%	5.5%	x	6%	-11%	-4.0
Cc1cccc(C(=O)N2CCCCCC2)c1[N+](=O)[O-]	-0.8%	11%	0.7%	3.3	-7%	6%	-6.1
O=C(O)c1ccccc1C(=O)NNc1cccc(Cl)n1	x	-15%	4.4%	3.6	-6%	13%[15.4 µM]	-3.6
CCOC(=O)C1CCN(C(=O)CSc2c3c(nc4ccccc24)CCC3)CC1	x	15%	1.4%	-1.2	-24%	6%[15.4 µM]	-0.4
CCOC(=O)CSC1=NC(=O)/C(=C/c2ccc(Br)cc2)S1	x	56µM*	0.5%	u	u	19%[15.4 µM]	-1.0
CC(=O)Oc1ccc(Cn2c(C)c(C(=O)NCc3ccccc3C(F)(F)F)sc2=O)cc1	-0.5%	x	-0.2%	x	x	x	9.1
O=C(CN1C(=O)C2CC=CCC2C1=O)N1CCN(S(=O)(=O)c2ccccc2)CC1 (stereo not drawn)	-0.2%	x	0.1%	x	19%	-10%	4.8
Cc1cc(OCC(=O)NCCCN2CCCC2=O)c2c(C)c(C)c(=O)oc2c1	x	14%	-0.8%	-0.3	-8%	28%	2.9
Cc1ccc(OCC(=O)c2cc(C)n(-c3cc(C)on3)c2C)c([N+](=O)[O-])n1	2.2%	x	-2.1%	x	-24%	37%	-1.6
O=C(OCC1OC(n2cc(Br)c(=O)[nH]c2=O)C(Br)C1O)c1ccccc1 (stereo not drawn)	-0.8%	10%	-0.2%	0.6	-2%	-23%	3.7
CCN1/C(=C/c2ccc3cc(C)ccc3[n+]2CC)Sc2cc(C)c(C)cc21	x	25µM*	u	u	x	9%[15.4 µM]	-4.7
CC1CN(C(=O)CCC(=O)N2CCN(c3ccccn3)CC2)c2ccccc2O1 (stereo not drawn)	4.9%	17%	0.5%	0.0	-8%	33%	-2.6
COc1ccc(NC(=O)CSc2nc3ccccc3c(=O)n2CCCN2CCOCC2)c(OC)c1	x	3%	1.4%	-1.9	3%	-2%[15.4 µM]	-1.5
COc1ccccc1-n1c(SCC(=O)Nc2ccc(Br)cc2)nc(O)cc1=O	0.4%	6%	3.3%	0.2	9%	-9%[15.4 µM]	0.7
Cc1cccn2c(CN[C@@H]3CCCC[C@H]3c3ccccc3)c(C(=O)N3CCOCC3)nc12	x	17%	-0.9%	1.4	-8%	u	-1.7
N#CC(C#N)=C1C(=O)N(CCN2CCCCC2)c2ccccc21	x	1%	-1.6%	7.2	12%	26%[15.4 µM]	-3.8
O=C(CN1C(=O)S/C(=C\C=C\c2ccccc2)C1=O)Nc1cccc(O)c1	-9.0%	-6%	4.6%	1.8	-20%	-1%	3.6
CCNC(=O)C1(C)CCCN(Cc2ccc(-c3ccccc3)o2)C1 (stereo not drawn)	1.2%	x	0.1%	x	x	x	-4.7
Cc1cc(C)c(S(=O)(=O)NC2CC2)c(C)c1	-9.4%	14%	0.6%	1.9	4%	-9%[15.4 µM]	2.8
CCOC(=O)N1CCN(C2CCCN(C(=O)c3cccc(N(C)C)c3)C2)CC1 (stereo not drawn)	x	12%	0.3%	-0.2	-4%	-1%	3.2
CCN(CC)C(=O)CSc1nc2[nH]ncc2c(=O)[nH]1	1.3%	16%	0.5%	-0.1	8%	15%	-2.7
c1ccc2c(c1)oc1c(NCC3CCCO3)ncnc12 (stereo not drawn)	-9.0%	2%	-2.6%	1.8	-27%	-1%	-3.3
O=C(Nc1nnc(SCC(=O)N2CCCc3ccccc32)s1)c1ccc2ccccc2c1	u	21%	-1.1%	-4.3	-4%	-63%[inhibitor]	-1.5
COc1ccc(C(=O)NCCN(C)C)c2nc3ccccc3cc12	1.6%	x	-5.0%	x	u	0%	-4.7

(cont.)
SMILES	ClpP mod	Sfp inh	PINK1 modulator	Menin MLL FP FL	gsp antagonist	gsp agonist	D2 agonist
CCc1ccc(-c2cc(C)no2)cc1S(=O)(=O)N1CCN(c2ccc(C(C)=O)cc2)CC1	x	11%	0.6%	x	-10%	19%	1.6
Cc1cc(C)c(CN2CCCC(CNC(=O)c3ccc(F)cc3)C2)c(-n2cccn2)c1 (stereo not drawn)	-0.9%	2%	2.8%	0.2	6%	-43%[inhibitor]	-3.1
CC(C)C1C(=O)N(Cc2cn(CC3CCCCC3)nn2)CCS(=O)(=O)N1Cc1ccc(-c2ccncc2)cc1 (stereo not drawn)	-0.5%	x	12%	x	x	-23%	-8.5
Cc1ccc(C(=O)N2CCN(c3cccc(C)c3C)CC2)cc1S(=O)(=O)N1CCOCC1	1.1%	x	-0.6%	x	4%	7%[15.4 µM]	-1.4
CC1(C(=O)NS(=O)(=O)C2CC2)CCCN(C(=O)c2ccc3ccccc3c2)C1 (stereo not drawn)	-0.8%	x	0.0%	x	x	x	-4.1
O=C(O)CSc1nnc(-c2ccncc2)n1CCc1ccccc1	-3.4%	28%	-0.3%[38.3 µM]	2.3	8%	2%	-1.7
COc1ccc(/C=N\n2nnc3ccccc32)cc1	u	6%	5.2%	0.5	-2%	-3%[15.4 µM]	-5.0
COc1ccccc1C(=O)NCCC(=O)NC1CCCCCC1	x	x	-0.5%	x	2%	-7%[15.4 µM]	-0.7
O=c1nc(N/N=C/c2ccccn2)cn[nH]1	x	23%	0.3%	1.9	2%	4%	14
CC1C/C(=N\NC(=O)c2ccc(NS(=O)(=O)c3ccc(Br)cc3)cc2)CC(C)(C)C1 (stereo not drawn)	-5.6%	7%	1.0%	3.7	-12%	-14%[15.4 µM]	-4.1
Cc1ccc(SCc2cc(=O)[nH]c(Nc3nc(C)c4cccc(C)c4n3)n2)cc1	-2.9%	2%	5.9%[38.3 µM]	0.9	-2%	-37%[inhibitor]	-0.8
CC(C)=CC(=O)OCC(=O)Nc1ccc(SC(F)F)cc1	x	1%	3.2%	-0.2	2%	0%[15.4 µM]	-1.3
Cc1cccc(CS(=O)(=O)Cc2ccc(C(=O)NCc3ccco3)o2)c1	0.6%	-13%	5.0%	u	4%	15%	3.3

Source: PubChem BioAssay (National Center for Advancing Translational Sciences (NCATS))
